Screens: PubChem, PCMD
Biofilm kill mix – clotrimazole potentiators killing C. albicans biofilm, primary screen, 4-compound mixtures. 0.02% of 120,000 active. C. albicans biofilm persisters + clotrimazole, fluorescence viability; primary screen in compound mixtures of four per well. AID 1242, 2008. inhibition, % at 7.6 µM;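 active = inhibition above 30.3% in the primary screen of four-compound pools, then above 30% when the compound was retested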;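 also: compounds exposed to preformed 24 h biofilms for 48 h; the number belongs to the whole pool; some results filed as inactive read as strong as hits; inactives centre near 12; 0% = biofilm with clotrimazole alone and 100% = kill control; retested singly at about 60 µM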
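Assay system: C. albicans biofilms / Medium: RPMI/MOPS medium, pH 7.0 / Schedule: biofilm formation 24 h, compound exposure 48 h, 37 °C / Measured by: Alamar Blue fluorescence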
The depositor's hits bear a star. These rows are one share of the data (hit frequency here may not be typical).

SMILES | Biofilm kill mix
CC(C)(C)c1ccc(COn2ccnc2)cc1 | 17
O=C(COC(=O)/C=C/c1ccc(Br)o1)Nc1ccccc1F | 6
O=C(NC(=S)Nc1nc(-c2ccc(Cl)cc2)cs1)c1cccs1 | 7
C/C(=C/Cc1c(O)cc2oc(C)cc(=O)c2c1O)COC1OC(CO)C(O)C(O)C1O (centres undefined) | 9
O=C(O)c1ccccc1NCc1ccco1 | 14
COc1ccc(CNC(=O)COC(=O)CCCOc2ccc(Cl)cc2Cl)cc1OC | -1
COc1ccccc1NC(=O)/C=C/c1cc([N+](=O)[O-])ccc1OC(F)F | 13
NC(N)=Nc1nc(C2COc3ccccc3O2)cs1 (centres undefined) | 16
Cc1cccc(C)c1Nc1nnc(SCc2cn3cccc(C)c3n2)s1 | 16
COCCn1c(N)c(Sc2ccc([N+](=O)[O-])cc2)c(=O)[nH]c1=O | -1
Cc1cccc(OCC(=O)NC(Cc2c[nH]c3ccccc23)C(=O)O)c1C (centres undefined) | 16
CCn1c(=S)[nH]c2c(c1=O)C(C)(C)Cc1ccccc1-2 | 9
COC(=O)C1=C(C)N(Cc2ccco2)C(=O)N[C@H]1c1ccc(Br)cc1 | -3
Cn1nccc1NC(=O)Nc1cccc(Cl)c1 | 13
Cc1ccc(S(=O)(=O)Nc2nc3ccccc3nc2Nc2cccc(S(=O)(=O)N3CCCC3)c2)cc1 | 15

Reprinted at random: 4 entries already listed, in no set order.
SMILES | Biofilm kill mix
COc1ccccc1NC(=O)/C=C/c1cc([N+](=O)[O-])ccc1OC(F)F | 13
COCCn1c(N)c(Sc2ccc([N+](=O)[O-])cc2)c(=O)[nH]c1=O | -1
O=C(NC(=S)Nc1nc(-c2ccc(Cl)cc2)cs1)c1cccs1 | 7
CCn1c(=S)[nH]c2c(c1=O)C(C)(C)Cc1ccccc1-2 | 9

Other compounds:
SMILES | Biofilm kill mix
CN(Cc1c(F)cccc1Cl)C(=O)C1CC(=O)N(CCc2ccccc2)C1 (centres undefined) | 12
CC(C)CNC(=O)NC(=O)COC(=O)COc1ccc(Cl)cc1Cl | 15
CCCCN(C(=O)CSc1nnc(-c2ccccc2)n1C)c1c(N)n(Cc2ccccc2)c(=O)[nH]c1=O | 5
CC(C)(C)n1ncc2c(=O)n(Cc3ccc(Cl)cc3)cnc21 | 24
O=[N+]([O-])c1cccc(CNC2CCCCCC2)c1 | 8
COc1ccc(OC)c(NC(=O)CCNS(=O)(=O)c2cccs2)c1 | 8
CC1S/C(=N/N=C2CCC(C(C)(C)C)CC2)NC1=O (centres undefined) | 12
Cc1cccc(C(=O)N[C@H](C(=O)Nc2cc(S(=O)(=O)N3CCCCC3)ccc2C)C(C)C)c1 | 11
CC(N=C(NC#N)Nc1ccncc1)C(C)(C)C (centres undefined) | 6
COc1ccc(-n2c(COc3cccc4ccccc34)nnc2SC(C)C(=O)O)cc1 (centres undefined) | 22
NS(=O)(=O)c1ccc(NC(=O)/C=C/c2cccc(Cl)c2)cc1 | 0
CC(C)(CC(=O)O)CC(=O)NNc1ncccc1C#N | 22
CN1CCN(C(=O)CSc2cc(=O)n(C)c3ccccc23)CC1 | 12
CC(/C=C/c1ccco1)=N/NC(=O)CNc1ccccc1C | 16
COc1ccc(C(=O)N=c2sc3c(C)ccc(OC)c3n2C)cc1OC | 30

Given in markdown: part of the list above.
| molecule | Biofilm kill mix |
| --- | --- |
| CC(/C=C/c1ccco1)=N/NC(=O)CNc1ccccc1C | 16 |
| Cc1cccc(C(=O)N[C@H](C(=O)Nc2cc(S(=O)(=O)N3CCCCC3)ccc2C)C(C)C)c1 | 11 |
| NS(=O)(=O)c1ccc(NC(=O)/C=C/c2cccc(Cl)c2)cc1 | 0 |
| CN(Cc1c(F)cccc1Cl)C(=O)C1CC(=O)N(CCc2ccccc2)C1 (centres undefined) | 12 |
| CC1S/C(=N/N=C2CCC(C(C)(C)C)CC2)NC1=O (centres undefined) | 12 |

Other structures follow:
SMILES | Biofilm kill mix
CCc1nc2ccccc2n1CC(O)COc1ccc(NC(C)=O)cc1 (centres undefined) | 18
Cn1nc(C(C)(C)C)c([N+](=O)[O-])c1C(=O)Nc1ccc(Br)cc1 | 9
CC(C)(C)OC(=O)N1CCC(C(=O)N[C@@H](Cc2ccccc2)C(=O)O)(c2ccccc2)CC1 | 11
O=C(Nc1ccn(Cc2ccc(Cl)cc2)n1)c1ccccc1 | 3
CCCOc1ccc(-c2c(=O)n(OCc3ccc([N+](=O)[O-])cc3)c3ccccc3[n+]2[O-])cc1 | -5
CC(C)(C)c1nnc(NC(=O)c2cccs2)s1 | 34
O=C(CCNc1cccc(F)c1)c1cc2ccccc2o1 | 14
O=Cc1cccn1-c1sc2c(c1C(=O)O)CCCC2 | 11
COc1cccc(-c2cc(=O)c3cc(NC(=O)c4ccccc4)ccc3[nH]2)c1 | 8
COc1ccc(C(=O)NNC(=O)CSc2nnnn2C)cc1 | 19
O=C1C(=O)N(CCN2CCCCC2)c2ccccc21 | -2
Cc1ccc(S(=O)(=O)c2nc(-c3ccccc3)oc2NCCCN2CCOCC2)cc1 | 26
COc1ccc(C2C=C(c3ccc(F)cc3)NC(=S)N2)cc1OC (centres undefined) | 7
COc1ccc(C(=O)COC(=O)c2ccc3ccccc3n2)cc1 | 11
Cc1c(Nc2nc3ccccc3nc2NS(=O)(=O)c2cccc(Cl)c2)c(=O)n(-c2ccccc2)n1C | 3
CCCCNC(=S)NC(=O)c1ccccc1Br | 27
CN(Cc1cnccn1)C(=O)CC1C(=O)NCCN1Cc1cccc(Oc2ccccc2)c1 (centres undefined) | 26
Cc1ccccc1C(=O)Nc1ccc(N2CCCCCC2)cc1 | 16
O=C(CN1CCN(c2ccccc2O)CC1)NCCCc1ccccc1 | 10
O=C(Nc1ccc(-c2nnn(CC(=O)N3CCN(C(=O)c4ccco4)CC3)n2)cc1)c1ccccc1F | 23
O=C(Nc1ccc2oc(-c3ccncc3)nc2c1)c1ccc(F)cc1 | 6
O=C(/C=C/c1ccco1)Nc1cccc(C(=O)Nc2ccccc2C(=O)O)c1 | 3
CC(C)(C)CC(=O)NC(=S)NCc1ccccc1 | 17
O=C(NCCc1csc(-c2ccccc2)n1)c1c(F)cccc1F | 29
N=C1SCC(=O)N1c1ncc(Cc2ccccc2Cl)s1 | 11
O=C(COc1ccc(Br)cc1)N(CCO)CCO | 4
Cn1c(=S)[nH]c2[nH]c(=O)cnc2c1=O | 19
COC(=O)c1ccc(Cn2cc(Cl)cn2)o1 | 8
O=C(O)CCc1nn2c3ccccc3n(CC(=O)O)c2nc1=O | 16
CN(Cc1nc(-c2cccc(Cl)c2)no1)C1CCOCC1 | 5

An excerpt of these results, field by field:
smiles: CCCCNC(=S)NC(=O)c1ccccc1Br
  Biofilm kill mix = 27
smiles: CN(Cc1cnccn1)C(=O)CC1C(=O)NCCN1Cc1cccc(Oc2ccccc2)c1 (centres undefined)
  Biofilm kill mix = 26

Next structures follow:
SMILES | Biofilm kill mix
N#Cc1ccc(OCc2nnc(-c3ccc([N+](=O)[O-])cc3)o2)cc1 | 12
CCOC(=O)c1c(NC(=O)c2ccccc2Cl)sc2c1CCc1ccccc1-2 | 10
CCOC(=O)N1CCN(CC(O)COc2ccccc2C(C)(C)C)CC1 (centres undefined) | 19
CCCCCCCC(=O)OCC(=O)[C@@]1(O)CC[C@H]2[C@@H]3CCC4=CC(=O)CC[C@]4(C)[C@H]3[C@@H](O)C[C@@]21C | -6
C[C@H]1C(=O)N(C)CCN1C(=O)c1ccccc1OC1CCN(S(C)(=O)=O)CC1 | 0
CCOc1ccccc1CNC(=O)CCCc1cn(C)c2ccccc12 | 9
NC(=O)CSc1nnc(-c2ccncc2)o1 | 18
COC(=O)c1cc(=O)c2c([N+](=O)[O-])ccc(OC)c2o1 | 0
COCCN(Cc1ccccc1)C(=O)c1c(C)nn(-c2ccccc2)c1C | 8
Cc1ccc(Cn2cnc3sc4c(c3c2=O)CCC4)c(C)c1 | 18
Cc1ccccc1N1C(=O)C2C3C=CC(C2C1=O)N(C)C3=O (centres undefined) | -5
FC(F)(F)c1ccc(CN2C[C@@H]3C(c4ccccc4)C4(c5cccnc5)CC3(C4)[C@H]2c2ccccc2)cc1 (some centres undefined) | 16
CCCCCCC(=O)N1CCCC(c2nc(-c3cccc(OC)c3)no2)C1 (centres undefined) | 16
Cc1ccc(NC(=O)C2CCCN(C(=O)c3ccc(Cl)cc3)C2)cc1C (centres undefined) | 3
NS(=O)(=O)c1cccc(NC(=O)COC(=O)CCCc2c[nH]c3ccccc23)c1 | 17
O=c1cc(-c2ccc(O)c(-c3c(O)cc(O)c4c(=O)cc(-c5ccc(O)cc5)oc34)c2)oc2cc(O)cc(O)c12 | 23
O=C(O)Cc1sc(-c2ccc(C(=O)O)cc2)nc1-c1ccccc1 | 14
N[C@@H](Cc1ccccc1)c1nnc(SC/C=C/c2ccccc2)o1 | 16
COc1nc(SCC(=O)Nc2ccccc2Cl)nc(N(C)C)n1 | 15
CCOC(=O)N1CCN(Cc2cn[nH]c2-c2cc3ccccc3o2)CC1 | 27
Fc1ccc(C(Nc2ccccn2)c2c[nH]c3ccccc23)cc1 (centres undefined) | 8
CCSc1nc(O)cc(=O)n1CC | 10
Cc1nnc2sc(SCc3ccccc3Cl)nn2c1=O | 2
Cc1cc(/C=C2\Cc3ccccc3C2=O)c(C)n1-c1ccccc1 | 6
Cc1ccc(OCC(=O)Nc2c[nH]c(=O)[nH]c2=O)cc1C | 10
CN(CC(=O)Nc1cccc(F)c1)CC(=O)Nc1cccc(S(N)(=O)=O)c1 | 3
C=CCOc1c(Br)cc(/C=N/Nc2ccc(C(=O)O)cc2)cc1OCC | 14
C=CCNC(=O)/C(C#N)=C/c1cn(-c2ccccc2)nc1-c1cccs1 | 21
Cc1cccc(C)c1NC(=O)NN(C(=O)c1ccccc1)C(C)(C)C | 10
Nc1ccc2c(c1)COC2=O | 13
Cc1nn(-c2ccccc2Cl)c(Cl)c1/C=N/Nc1nc2ccccc2s1 | 18
C/C(CC(=O)Nc1ccc(N(C)C)cc1)=N\NC(=O)c1ccncc1 | 18
O=C(O)C1Cc2ccccc2CN1S(=O)(=O)/C=C/c1ccccc1 (centres undefined) | 26
CC(=O)Nc1nnc(CSCc2ccccc2F)s1 | 7
CCN(CC)C(=S)SC1=CCS(=O)(=O)C1 | 15
CCOC(=O)C1CCN(C(=O)COc2ccc([N+](=O)[O-])cc2)CC1 | -33
CCOC(=O)c1ccc(NC(=S)NCCc2ccc(OC)c(OC)c2)cc1 | 2
COc1ccccc1-c1nc(SCC(=O)NCC2CCCO2)c2c(=O)n(C)c(=O)n(C)c2n1 (centres undefined) | 7
COCCOC(=O)C1=C(C)NC(=O)NC1c1ccc(-c2cc(Cl)ccc2Cl)o1 (centres undefined) | 14
CCC1(CC)C(=O)NN(c2ccccc2)C1=O | 19
O=c1cc(-c2ccccc2Cl)oc2c(Br)ccc(O)c12 | -4
CCOC(=O)CN(C(=O)CNC(=O)c1ccco1)C(C(=O)NC1CCCCC1)c1cccs1 (centres undefined) | 8
CN1CCN(C(=S)c2ccc([N+](=O)[O-])cc2)CC1 | 8
COc1ccc(-c2nc(=S)c3c(n2Cc2cccnc2)CC(C)(C)OC3)cc1 | 31
CCCS(=O)(=O)c1c(S(=O)(=O)CCC)c2ccc(C(N)=O)cn2c1C(=O)c1ccc(OC)cc1 | 11
O=C(/C=C/c1ccc(N2CCCCC2)c([N+](=O)[O-])c1)c1ccc(O)cc1 | -1
Fc1ccc(Nc2ccc3ccccc3n2)c(F)c1 | 8
CCCNC(=O)c1ccc2c(=O)c(O)c(-c3cccc(Br)c3)[nH]c2c1 | 21
CCN(CC)CCn1c(-c2ccc(C)cc2)nc(=S)c2c1CC(C)(C)OC2 | 6
Cc1ccc2c(c1)C1CN(C)CCC1N2C(=O)c1cccc(S(=O)(=O)N(C)C)c1 (centres undefined) | 16
NS(=O)(=O)c1ccc(CCNC(=O)CSc2ncnc3ccccc23)cc1 | 9
CCN(CC)c1ccc(N)cc1S(=O)(=O)Nc1ccc(OC)cc1 | 8
Cc1ccc(S(=O)(=O)N2CCN(C(=S)NCc3ccc4c(c3)OCO4)CC2)cc1 | 5
CC1=CC(=C2C=CC(=O)C=C2)C=C(C)N1C | 7
COc1ccc(CCNC(=O)CCc2ccc(S(=O)(=O)NC(C)C)cc2)cc1 | 10
CCCSc1nc2c(c(=O)[nH]c(=O)n2C)n1CC(O)COc1ccccc1 (centres undefined) | 11
Cc1nc2ccc(NC(=O)c3nn(CC(C)C)c(=O)c4ccccc34)cc2s1 | 5
O=C(C1=C[C@H](c2ccccc2)C[C@H](OCCCCO)O1)N1CCN(Cc2ccccc2)CC1 | 15
Cc1cc(C)cc(NS(=O)(=O)c2ccc(NC(=O)C3CCCCC3C(=O)O)cc2)c1 (centres undefined) | 15
COCCOC(=O)c1c(N)n(CCCN2CCOCC2)c2nc3ccccc3nc12 | 29

More compounds follow.
SMILES | Biofilm kill mix
O=C(N/N=C/c1cc2ccccc2nc1Cl)[C@H]1C[C@@H]1c1ccccc1 | 13
CCOC(=O)N1CCN(S(=O)(=O)c2ccc(OC)c(OC)c2)CC1 | 10
C/C(=N\NC(=O)C1CC1)c1cccs1 | 19
COC(=O)c1c[nH]c(=O)c2ccccc12 | 20
Cn1cnc(S(=O)(=O)N2CCN(c3ccc(F)cc3)CC2)c1 | 13
O=C(NCc1ccc(-c2nc3ccccc3s2)cc1)c1ccc(Br)o1 | 14
O=C(/C=C/c1cccc([N+](=O)[O-])c1)OCC(=O)c1ccccc1 | 6
COc1ccc(S(=O)(=O)N2CCN(C(=O)c3cccs3)CC2)cc1OC | 12
CC(C)Sc1ccc([N+](=O)[O-])cc1C(=O)Nc1ccncc1 | 14
COc1ccc(C2c3c(-c4ccccc4O)n[nH]c3C(=O)N2Cc2ccco2)cc1 (centres undefined) | 1
CC(NC(=O)c1cccs1)c1nnc(SCc2ccc(Cl)cc2Cl)n1C (centres undefined) | 13
